# KCNQ2 enhance = potentiators of rat KCNQ2 potassium channel; CHO-K1 KCNQ2, FluxOR thallium flux fluorescence; active compounds read high; hit rate 0.54% among 310,000; Potassium voltage-gated channel subfamily KQT member 2 (Rattus norvegicus), O88943; B-score at 10 µM;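 active = fluorescence ratio B-score at least 3 SD of library B-scores, with initial fluorescence B-score within 3 SD, cut at about 5.3 in these data; same plate scores as AID 2156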;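 note: B-score of peak minus minimum over baseline fluorescence ratio after K+ and Tl+ stimulus; positive B-score means potentiation of KCNQ2 with more thallium influx and brighter signal; only the inactives scoring about 0 or higher are listed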
# Target sequence (O88943 whole entry, looked up): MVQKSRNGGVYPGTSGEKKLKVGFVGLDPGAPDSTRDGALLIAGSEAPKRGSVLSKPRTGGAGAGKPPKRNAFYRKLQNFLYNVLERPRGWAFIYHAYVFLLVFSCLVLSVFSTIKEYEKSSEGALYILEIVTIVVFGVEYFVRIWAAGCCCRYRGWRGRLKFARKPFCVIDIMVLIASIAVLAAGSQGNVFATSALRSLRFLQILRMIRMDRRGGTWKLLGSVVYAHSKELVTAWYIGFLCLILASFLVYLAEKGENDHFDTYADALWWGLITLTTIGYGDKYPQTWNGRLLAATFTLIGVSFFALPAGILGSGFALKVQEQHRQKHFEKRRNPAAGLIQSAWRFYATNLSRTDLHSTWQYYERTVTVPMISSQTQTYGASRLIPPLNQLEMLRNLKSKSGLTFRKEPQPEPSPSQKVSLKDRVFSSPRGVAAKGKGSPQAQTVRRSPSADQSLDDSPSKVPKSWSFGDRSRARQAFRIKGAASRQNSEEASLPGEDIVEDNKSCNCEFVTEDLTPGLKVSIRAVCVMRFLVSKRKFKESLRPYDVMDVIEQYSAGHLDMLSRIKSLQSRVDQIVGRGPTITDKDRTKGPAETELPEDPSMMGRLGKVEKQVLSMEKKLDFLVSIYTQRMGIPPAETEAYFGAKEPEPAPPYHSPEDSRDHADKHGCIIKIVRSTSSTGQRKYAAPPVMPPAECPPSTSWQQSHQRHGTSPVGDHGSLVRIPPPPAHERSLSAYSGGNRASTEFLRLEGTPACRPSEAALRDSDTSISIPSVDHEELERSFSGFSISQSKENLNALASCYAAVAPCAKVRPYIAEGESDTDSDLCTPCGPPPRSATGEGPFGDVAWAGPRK
# KCNQ2 enhance baseline = further read-out of KCNQ2 enhance, marked with its call; B-score; compound at 10 µM; measured here: initial fluorescence intensity artifact check;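 brightness before thallium and not channel activity; 0 = typical well and far values either way flag optical interference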
# Active calls of the source: *. Not all compounds are listed; count on the stated rates, not on these rows.
SMILES,KCNQ2 enhance,KCNQ2 enhance baseline
C=CCn1c(SCC(=O)c2ccc(OC)cc2)nnc1C(C)NC(=O)c1cccs1 (stereo unspecified),0.01,-1.71
CCc1cccc(CC)c1NC(=O)C(NS(=O)(=O)c1cccs1)c1ccccc1 (stereo unspecified),0.15,0.48
NC1=NC2(CCCCC2)N=C(Nc2ccc(Br)cc2)N1,1.96,0.91
CCCCn1c(NC(=O)C2CCCCC2)nc2ccccc21,9.62*,0.58*
CCOc1ccc2nc(CN3CCN(Cc4ccccc4OCC)C(CCO)C3)ccc2c1 (stereo unspecified),0.21,-0.77
CCn1c2ccccc2c2cc(NC(=S)N3CCOCC3)ccc21,0.91,0.02
COc1ccc(CCNC(=O)CC(=O)NCCc2ccc(OC)cc2)cc1,0.78,1.05
COc1cc(OC)c(NC2=NCCCCC2)cc1Cl,1.62,0.01
O=C(CN1C(=O)COc2ccc(S(=O)(=O)N3CCCCCC3)cc21)NCc1ccc(F)cc1,0.91,-1.53
Cc1c(C#N)c2ncn(Cc3ccccn3)c(=O)c2n1-c1ccccc1,1.72,0.01
COc1ccccc1-n1nc(C)cc1N,0.13,0.42
O=C(NCc1ccc(Cl)cc1)C1CCN(c2nnc(N3CCCC3=O)s2)CC1,0.7,0.37
C=CCOc1c(Br)cc(/C=N/n2c(CC)n[nH]c2=S)cc1Br,0.43,0
COc1cc(C(=O)NCC2CCCO2)ccc1OCc1ccccc1Cl (stereo unspecified),2.84,1.27
COc1cccc(S(=O)(=O)NCc2ccc(C(=O)Nc3ccc(C)cc3)cc2)c1,0.01,0.86
COc1ccc(N2C(=O)[C@H]3[C@@H](C2=O)C2c4ccccc4C=NN2[C@H]3C(=O)C(C)(C)C)cc1 (stereo partly specified),0.54,0.52
COc1ccc(N(CCC#N)C(=O)/C(C#N)=C\c2cccs2)cc1,1.12,-1.56
CC(=O)Nc1nnc(CCS(=O)(=O)c2ccc(C)c(C)c2)s1,1.4,-1.95
CCOC(=O)Cc1csc(N/N=C\c2ccc(N(C)C)cc2)n1,1.24,-1.98
Cc1c(C(=O)OC(C)C)sc2nc[nH]c(=O)c12,1.77,-0.9
COc1cccc(Cn2cccc(NC(=O)Nc3ccc(C#N)cc3)c2=O)c1,1.33,-4.3
COc1ccc(N(CC(=O)NCCSCc2ccco2)S(=O)(=O)c2ccccc2)cc1,0.03,-0.31
C/C(=N\NC(=S)NCCc1ccccc1)c1ccc(O)cc1O,0.01,-2.55
CC(C)N(Cc1ccccc1)C(=O)c1cccs1,0.38,0.64
COc1cc(CN2CCC(C(=O)N3CCN(c4ccccc4F)CC3)CC2)cc(OC)c1O,1.72,0.19

# Record cards (already shown). Order of values: KCNQ2 enhance | KCNQ2 enhance baseline
# COc1cccc(Cn2cccc(NC(=O)Nc3ccc(C#N)cc3)c2=O)c1 as listed: 1.33 | -4.3
# O=C(NCc1ccc(Cl)cc1)C1CCN(c2nnc(N3CCCC3=O)s2)CC1 as listed: 0.7 | 0.37
# COc1cc(C(=O)NCC2CCCO2)ccc1OCc1ccccc1Cl (stereo unspecified) as listed: 2.84 | 1.27
# CCCCn1c(NC(=O)C2CCCCC2)nc2ccccc21 as listed: 9.62* | 0.58*
# CC(=O)Nc1nnc(CCS(=O)(=O)c2ccc(C)c(C)c2)s1 as listed: 1.4 | -1.95

# Continued.
SMILES,KCNQ2 enhance,KCNQ2 enhance baseline
CC(=O)N1CCC(N(CCCOC(C)C)C(=O)Nc2ccc(C)c(C)c2)CC1,0.65,-2.19
O=C(CN(Cc1cccs1)C(=O)CCC(=O)Nc1nccs1)NCc1ccccc1,2.06,-0.5
CC(C)NC(=O)CSc1nncn1-c1ccccc1,0.56,0.31
COc1cccc(C2C3=C(N=c4s/c(=C\c5ccc(OCC(=O)O)cc5)c(=O)n42)c2ccccc2CC3)c1 (stereo unspecified),0.09,0.36
O=C(Cn1ncc2c3ccccc3n(Cc3ccccc3)c2c1=O)NCc1ccco1,1.78,-1.33
CC(=O)Nc1ccc(NC(=O)C(C)OC(=O)CCCN=C2NS(=O)(=O)c3ccccc32)cc1 (stereo unspecified),0.74,1.35
CCc1nnc(NC(=O)CCC(=O)N2CCN(Cc3cc(Cl)ccc3OC)CC2)s1,2.06,2.72
Cc1cccc(NC(=O)Cn2c(=O)n(C)c3ccccc32)c1,0.61,1.02
O=C(CCSc1nnc(-c2ccncc2)o1)Nc1cccc2ccccc12,0.67,0.01
O=C(CCn1c(=O)[nH]c2ccsc2c1=O)NCCc1ccc(Cl)cc1,0.35,3.89
COc1ccc(CNC(=O)CCCOc2cc(=O)n(C)c3ccccc23)cc1,1.18,0.08
COc1ccc2c(c1)c(C(O)CN1CCC3(CC1)OCCO3)c(C)n2C (stereo unspecified),0.26,0.2
CN(C)c1ccc(C(CNS(=O)(=O)c2ccc(F)c(F)c2)c2c[nH]c3ccccc23)cc1 (stereo unspecified),1.28,2.96
OCCN1CCN(c2ncnc3sc(-c4ccccc4)cc23)CC1,0.25,0.06
CCCN=Cc1sc2ccc(OCC)cc2c1O,0.4,0.13
CCOc1ccccc1N(CC(=O)Nc1cc(OC)ccc1OC)S(C)(=O)=O,0.19,0.88
COc1ccc(CCNS(=O)(=O)c2cn(C)nc2C)cc1,0.72,0.88
O=S(=O)(c1cccc(S(=O)(=O)N2CCOCC2)c1)N1CCCCC1,1.39,0.92
CC1CCN(C(=O)c2ccc([N+](=O)[O-])o2)CC1,1.02,1.39
CCC(C)[C@@H](C(=O)N1CCNCC1)n1cc(CCCN=C(N)N)nn1 (stereo partly specified),0.11,-0.26
CN(CC(=O)N1CCN(c2ccccn2)CC1)S(=O)(=O)c1ccc(Cl)cc1,1.48,1.5
Cc1ccccc1C(=O)c1cccn1CC(=O)N1CCCCC1,1.61,0.12
c1ccc2[nH]c(C3CC3)nc2c1,0.03,-0.29
COc1ccc(NC(=O)c2cccc(OS(=O)(=O)N(C)C)c2)cc1,0.63,-1
CCN1CCN(Cc2ccc(NC(=O)c3ccc(C)c(NC(=O)C4=NN(c5ccccc5)C(=O)C4)c3)cc2C(F)(F)F)CC1,0.16,0.04

# By substructure, the entries above with a furan ring, fused or not
SMILES,KCNQ2 enhance,KCNQ2 enhance baseline
COc1ccc(N(CC(=O)NCCSCc2ccco2)S(=O)(=O)c2ccccc2)cc1,0.03,-0.31
O=C(Cn1ncc2c3ccccc3n(Cc3ccccc3)c2c1=O)NCc1ccco1,1.78,-1.33
CC1CCN(C(=O)c2ccc([N+](=O)[O-])o2)CC1,1.02,1.39

# (listing goes on)
SMILES,KCNQ2 enhance,KCNQ2 enhance baseline
NC1=NC(=O)CC(C(=O)NCc2ccccc2)S1 (stereo unspecified),3.42,-0.71
CCOc1ccc(N=NC2C(=O)N(C(N)=S)N=C2C)cc1 (stereo unspecified),0.16,-1.43
CCN1CCCC1CNC(=O)C1c2cc(OC)c(OC)cc2C(=O)N(C)C1c1cccnc1 (stereo unspecified),2.11,-0.03
c1ccc(Nc2nc(CSc3ncn[nH]3)cs2)cc1,1.38,0.86
COC(=O)c1cc(Cl)cc(Cl)c1OS(=O)(=O)N(C)C,1.8,-1.2
Cn1c(SCC(=O)NC2CCCCCC2)nnc1-c1ccco1,0.7,-0.83
COc1ccc(-c2nc(CN3CCC(C(=O)N4CCc5ccccc54)CC3)c(C)o2)cc1OC,0.63,-0.03
Cc1ccc(-n2ncc3c(SCC(=O)Nc4cc(C)on4)ncnc32)c(C)c1,0.08,0.25
Cc1ccc(NS(=O)(=O)c2cccc(C(=O)n3ncc(C#N)c3N)c2)c(C)c1,0.95,-0.75
CCCCn1c(-c2ccc(C(C)(C)C)cc2)nc2cc3[nH]c(=O)c(C(C)C)nc3cc21,1.06,0.27
CCn1c(SCC(=O)Nc2nc(C)cs2)nnc1-c1ccoc1C,1.01,-0.67
CCOc1ccc(-c2cnc3ccccc3n2)cc1,0.2,-0.63
COc1cc(OC)c(S(=O)(=O)NC(C)C)cc1C(=O)O,0.82,-0.2
COC(=O)C1=C(N)OC2=C(C(=O)CC(C)(C)C2)C1c1cccnc1 (stereo unspecified),0.25,0.32
CCNC(=S)Nc1cccc(S(=O)(=O)Nc2ccccc2OC)c1,0.32,-1.42
CC(C)C(=O)NNC(=O)c1ccccn1,0.93,0.81
CCOC(=O)c1c(C)[nH]c(C(=O)CSc2nnnn2-c2ccccc2)c1C,0.17,1.05
COc1ccc(OCC(=O)Nc2ccc(N3CCN(C(=O)c4ccco4)CC3)cc2)cc1,0.02,-0.66
CCC(c1ccccc1)c1nc(-c2cccnc2)no1 (stereo unspecified),1.5,-3.21
O=C(Nc1ccc2c(c1)OCO2)c1cccc(Cl)c1,1.2,-0.26
Cc1c(C(=O)c2ccc([N+](=O)[O-])cc2)c(=O)n(C)c(=O)n1C,0.87,-0.45
Cn1cnnc1SCC(=O)Nc1ccc(N2CCOCC2)cc1,0.86,1.02
Cc1nc2ccccn2c1C(=O)Nc1ccc(Cl)cc1,0.01,0.73
O=C(Nc1ccccc1)c1ccn[nH]1,0.07,-0.17
CC12CN3CC(C)(CN(C1)C3c1ccc3c(c1)OCO3)C2=O (stereo unspecified),2.4,0.31

# The listing continues.
SMILES,KCNQ2 enhance,KCNQ2 enhance baseline
Cc1ccc(N(Cc2cc3cc(C)ccc3[nH]c2=O)S(=O)(=O)c2ccccc2)cc1,0.61,-0.73
CC(NC(=O)C1CCN(S(=O)(=O)N2CCCCCC2)CC1)c1ccccc1 (stereo unspecified),1.08,-1.22
Cc1ccc(-c2nnc(SCC(=O)N/N=C/c3ccccc3C(=O)O)n2-c2ccccc2)cc1,0.36,1.67
CCCOc1cccc(C2/C(=C(/O)c3ccc4c(c3)CC(C)O4)C(=O)C(=O)N2CCN2CCOCC2)c1 (stereo unspecified),0.01,0.61
CNC(=O)c1ccc(NC(=O)Nc2ccccc2)cc1,0.23,0.13
Nc1nc(SCc2nc3scc(-c4cccs4)c3c(=O)[nH]2)n[nH]1,0.63,0.51
CCN1CCCC1CNC(=O)C(=O)NCCc1ccc(OC)c(OC)c1 (stereo unspecified),0.39,1.11
Cc1ccc(N(C(=O)CCl)C(C(=O)NC2CCCCC2)c2cccnc2)cc1C (stereo unspecified),0.95,-0.05
CCOc1ccc(CCNC(=O)C2CC=CCC2C(=O)OC(C)C)cc1OCC (stereo unspecified),0.03,-1.37
O=C(CCN1C(=O)/C(=C\c2ccccc2)SC1=S)NCCCN1CCOCC1,1.42,-0.19
CC(=O)Nc1ccc(OCC(O)CN2CCN(c3cccc(Cl)c3)CC2)cc1 (stereo unspecified),1.83,-0.5
CCOc1cc(/C=C(\C#N)C(=O)NCc2cccnc2)ccc1O,0.41,-0.32
CS(=O)(=O)N1CCN(C(=O)c2ccc3c(c2)OCCO3)CC1,0.84,-0.06
Cc1cc2oc(C(=O)NCc3ccc4c(c3)OCO4)c(C)c2cc1C,0.03,-0.17
COc1ccc(Nc2nc(Cl)nc(NCc3ccco3)n2)c(OC)c1,1.75,-0.08
COc1ccc(C)cc1NC(=O)C(=O)NCc1ccncc1,1.2,1.57
CC(=O)Nc1ccc(C(=O)NNC(=O)c2ccc(Cl)cc2)cc1,0.41,-0.96
CCCN1CCN(CCCNC(=S)Nc2ccc(F)cc2)CC1,1.14,-0.66
Cc1ccc(CNC(=O)c2ccc(N3CCC4(CC3)CC(c3cccc(Br)c3)=NO4)c(N)c2)cc1,0.17,-0.74
CCN(CC)CC(O)c1cccn1-c1ccc(CNC(=O)NC(C)C)cc1 (stereo unspecified),1.75,-0.5
CC(=O)c1cnc(Nc2nc(C)c3cc(C)c(C)cc3n2)nc1C,1.14,-0.45
CCn1c(SCC(=O)NNC(=O)c2ccc(C)cc2)nnc1C1CC1,1.42,-1.36
O=C(COc1ccccc1)NCC(=O)Nc1ccncc1,0.54,-0.12
COc1ccc(-c2nnc3n2CCCCC3)cc1OC,0.69,-0.68
COc1cccc2cc(C(=O)N3CCN(c4ccccn4)CC3)c(=O)oc12,1.15,-0.27

# Following part:
SMILES,KCNQ2 enhance,KCNQ2 enhance baseline
COc1ccc2nc(NC(=O)/C=C/c3ccc4c(c3)OCO4)sc2c1,0.43,-0.01
Cc1nc2scc(C)n2c(=O)c1S(=O)(=O)Nc1ccc(N2CCOCC2)c(Cl)c1,1.4,-0.83
O=C(O)c1ccc(CNCc2c(Cl)cccc2Cl)cc1,1.78,0.03
Cc1cc2c(cc1C)C(c1cccc([N+](=O)[O-])c1)CC(=O)N2 (stereo unspecified),0.04,-0.03
O=C(O)CCCCCNC(=O)c1ccc(Br)cc1,0.02,-0.77
Cc1cccc(C(=O)N2CCCC(N3CCN(c4cccc(Cl)c4)CC3)C2)n1 (stereo unspecified),0.04,-0.43
Cc1ccccc1OCC(=O)Nc1ccc(Cc2ccncc2)cc1,2.07,0.12
COc1ccc(NC(=O)CCCSc2ccccc2)cc1,1.11,-1.95
Nc1ccc(C(=O)N/N=C/c2ccccc2)cc1,0.97,-0.92
COc1ccc(CCNC(=O)COc2ncnc3cc([N+](=O)[O-])ccc23)cc1,0.02,1.81
CC1(C)Cc2c(sc3nc(SCC(=O)O)[nH]c(=O)c23)CO1,0.17,-2.16
Cc1ccc(Nc2c(-c3ccccc3)nc3cnccn23)cc1,1.66,-0.29
Cn1c(=O)c2c(nc(NCCCO)n2Cc2cccc(Br)c2)n(C)c1=O,0.44,0.81
Cc1cccc(-c2cnn(-c3cccc([N+](=O)[O-])c3)c2N)c1,1.08,0.03
COc1ccc(-n2c(SC)nc(O)c(Cc3ccccc3)c2=O)cc1,0.96,1.19

# Part of the list above in order of SMILES length, lowest first:
SMILES,KCNQ2 enhance,KCNQ2 enhance baseline
O=C(O)CCCCCNC(=O)c1ccc(Br)cc1,0.02,-0.77
COc1ccc(NC(=O)CCCSc2ccccc2)cc1,1.11,-1.95
COc1ccc2nc(NC(=O)/C=C/c3ccc4c(c3)OCO4)sc2c1,0.43,-0.01
